# Assay outcomes deposited in PubChem BioAssay by several laboratories.
# eIF4H FP inh = inhibitors of RNA binding by human eIF4H | eIF4H fluorescence polarization binding assay | Q15056 | AID 2012 | hit rate 0.94% among 290,000 | inhibition, % at 35 µM;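 active = 50% or more with normal probe brightness, or confirmed in later tests; inconclusive = above 50% with abnormal brightness, or retests that disagree; inactive = below 50% or failed in later tests; about a fifth of its hits are not listed in these tables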;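 note: calls also rest on retests at 20 µM and on dose response follow-up; 0% = protein and probe with vehicle and 100% = probe without protein; strong numbers were not always called active; many hits fall short of the cut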
# CSC inhib = cancer stem cell inhibition; cancer stem cell-like cells viability, luminescence; inhibition, % at 7.5 µM; hit rate 1.1% among 300,000; AID 2717;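 active = mean at 75% or more and at least half the replicates too; inconclusive = mean and replicates disagree; tested in HMLE shEcad cells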;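 note: 0% = median of negative and 100% = median of positive control wells; the first replicate is given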
# Yeast UUG start = modulators of start codon recognition fidelity in yeast; hit rate 0.13% among 350,000; activity score, % at 18.7 µM; S. cerevisiae UUG-firefly luciferase reporter, luminescence/redox ratio;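 active = replicate mean at a twofold rise or more, about +100% in these data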;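 note: firefly luciferase made from a UUG start codon reports start codon fidelity; reporter light over untreated wells divided by growth signal over untreated wells; some hits fall short of that in this replicate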
# MT1-MMP act inh = MT1-MMP (human) activation inhibition; P50281; HT1080 RFP-PRO-GFP cells, GFP/RFP ratio fluorescence, overnight; percent of plate control window, DMSO zero; GFP/RFP ratio change, % at 20 µM; hit rate 0.061% among 360,000;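 active = GFP/RFP ratio change of at least 30% with cell ATP level not reduced by more than half and red fluorescence within 50% of control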; note: strong numbers were not always called active
#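 Assay system – RFP-PRO-GFP reporter HT1080 cells · Compound dosing – single dose of 20 µM compound, 1% DMSO final · Incubation – overnight compound exposure at 37 °C · Measure – GFP/RFP fluorescence ratio · Benchmarks – DMSO wells and RFP-L50D-GFP cells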
# PABP polyA inh = PABP-poly(A) binding inhibition; inhibition, % at 35 µM; hit rate 1% among 290,000; P11940; PABP-poly(A) RNA binding, fluorescence polarization;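 active = 50% or more with normal probe brightness, or confirmed in later tests; inconclusive = above 50% with abnormal brightness, or retests that disagree; inactive = below 50% or failed in later tests; about a fifth of its hits are not listed in these tables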;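 note: calls also rest on retests at 20 µM and on dose response follow-up; controls were probe without protein and protein plus probe with vehicle; some compounds called inactive have numbers as strong as hits; many hits fall short of the cut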
# Target sequence (P11940 whole entry, looked up): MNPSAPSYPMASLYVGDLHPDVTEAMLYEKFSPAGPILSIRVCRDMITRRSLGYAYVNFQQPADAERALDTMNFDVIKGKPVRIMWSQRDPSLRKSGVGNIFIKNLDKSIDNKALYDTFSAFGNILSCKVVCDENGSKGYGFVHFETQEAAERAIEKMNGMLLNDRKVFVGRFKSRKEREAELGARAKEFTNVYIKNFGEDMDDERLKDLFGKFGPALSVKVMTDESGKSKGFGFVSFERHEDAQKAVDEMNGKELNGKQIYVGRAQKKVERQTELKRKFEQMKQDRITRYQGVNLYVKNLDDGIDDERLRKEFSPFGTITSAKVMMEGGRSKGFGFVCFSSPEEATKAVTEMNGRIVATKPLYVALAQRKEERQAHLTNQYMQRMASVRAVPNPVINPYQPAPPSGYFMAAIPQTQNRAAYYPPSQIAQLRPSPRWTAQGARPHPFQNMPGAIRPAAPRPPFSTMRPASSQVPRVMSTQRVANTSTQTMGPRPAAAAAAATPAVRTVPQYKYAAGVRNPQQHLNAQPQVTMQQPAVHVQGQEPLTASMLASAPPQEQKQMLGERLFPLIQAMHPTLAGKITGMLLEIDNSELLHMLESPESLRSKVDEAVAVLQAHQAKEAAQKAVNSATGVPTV
# Rce1 inhib = inhibitors of yeast Ras-converting enzyme; Q03530; yeast membranes, quenched prenylated peptide cleavage fluorescence; calls only; hit rate 0.27% among 290,000; AID 2563;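 active = fall in fluorescence gain of 50% or more versus controls, with final raw signal at or below 3038400; inconclusive = same 50% fall but final raw signal above 3038400; inactive = fall in fluorescence gain under 50%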;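 note: plate controls were neutral control wells for no effect and wells lacking membranes for full effect; tested at 10 µM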
# Target sequence (Q03530 whole entry, looked up): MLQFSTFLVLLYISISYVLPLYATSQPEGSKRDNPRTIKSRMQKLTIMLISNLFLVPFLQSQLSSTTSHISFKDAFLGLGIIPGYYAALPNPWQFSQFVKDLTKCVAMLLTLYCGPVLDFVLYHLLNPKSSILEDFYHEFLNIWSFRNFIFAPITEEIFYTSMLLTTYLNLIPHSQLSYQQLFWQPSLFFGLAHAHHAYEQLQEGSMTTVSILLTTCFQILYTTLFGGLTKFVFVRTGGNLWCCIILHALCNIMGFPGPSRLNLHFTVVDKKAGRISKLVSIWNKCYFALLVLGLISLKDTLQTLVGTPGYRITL
# HIV Env fusion = blocks HIV Env-driven cell-cell fusion; HeLa-JRFL Env/CEM21 cell fusion, luciferase; inhibition, % at 12.3 µM; hit rate 1.1% among 360,000; AID 651610;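 active = mean replicate inhibition score of at least 50 and every replicate individually at or above 50; inconclusive = only one of the two criteria met; inactive = mean below 50 and not all replicates reaching 50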;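 note: 0% = plate neutral controls and 100% = maraviroc near 300 nM; one replicate is shown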
# eIF4H FP inh retest = also measured in eIF4H FP inh; calls as there; inhibition, %; compound at 20 µM; confirmation average;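 mean of two retest wells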
# PABP polyA inh retest = second read-out of PABP polyA inh, no call of its own (marks repeat the call); inhibition, %; compound at 20 µM; confirmation repeats;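 mean of two retest wells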
# MT1-MMP act inh RFP = also measured in MT1-MMP act inh; calls as there; RFP signal change, %; measured here: RFP expression control read;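 0 = vehicle wells; hits needed this value within 50% of zero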
# The depositor's hits bear a star; i = inactive; ? = inconclusive; nt = not tested or not shown. Not all compounds are listed; rates above refer to the full screens.
SMILES,eIF4H FP inh,CSC inhib,Yeast UUG start,MT1-MMP act inh,MT1-MMP act inh RFP,PABP polyA inh,Rce1 inhib,HIV Env fusion,others
CCCC(c1nnnn1Cc1cccs1)N1CCN(C)CC1 (stereo unspecified),-3,1,nt,-1,0,7,i,-9,
Cc1cc(C(=O)N/N=C2\CC(=O)c3ccccc32)c(C)n1-c1ccc(F)cc1,32,-4,-7,-17,2,23,i,16,
COc1ccc(C(=O)COC(=O)CCC(=O)c2cccs2)cc1,-12,-3,nt,0,3,-17,i,12,
C=CCOc1cccc(C2C(C(=O)c3ccc(C)o3)=C(O)C(=O)N2Cc2ccncc2)c1 (stereo unspecified),6,-1,-15,3,0,4,i,1,
Fc1ccc2c(c1)C(c1ccncc1)=NNC(c1cccnc1)=N2,-4,-10,-18,2,4,8,i,-36,
COC(=O)c1sccc1NC(=O)c1c(Cl)cccc1Cl,12,-7,-2,-1,3,-6,i,-11,
CCOC(=O)Nc1cccnc1Sc1ccc(Cl)cc1,nt,3,7,0,3,nt,i,-5,
CCc1ccc(N(C(=O)Cc2cccs2)C(C(=O)NC2CCCCC2)c2cn(C)nc2C)cc1 (stereo unspecified),0,-11,-8,-8,-3,-9,i,?,
Cc1ccc(CN2CC(N3CCN(C4CCN(C)CC4)CC3)CS2(=O)=O)cc1 (stereo unspecified),nt,nt,-11,2,5,nt,nt,0,
CCOC(=O)CCC(=O)O[C@H]1[C@H](O[C@@H]2[C@@H](C)[C@H](O[C@H]3C[C@@](C)(OC)[C@@H](O)[C@H](C)O3)[C@@H](C)C(=O)O[C@H](CC)[C@@](C)(O)[C@H](O)[C@@H](C)C(=O)[C@H](C)C[C@@]2(C)O)O[C@H](C)C[C@@H]1N(C)C,0,0,8,-8,-3,2,i,-9,
CN(c1ccccc1)S(=O)(=O)c1cccc(NC(=O)c2cc(=O)c3ccccc3o2)c1,-10,0,nt,-3,-19,-6,i,-5,
CSCCC(NC(=O)c1ccccc1Cl)C(=O)NCCOc1ccccc1 (stereo unspecified),nt,7,-15,3,6,nt,i,-19,
S=C(NCc1ccc(Cl)cc1Cl)Nc1ccccc1,-8,5,nt,4,-3,10,i,-76,
CCC(=O)N1c2ccc(S(=O)(=O)N3CCN(c4cc(C)ccc4C)CC3)cc2CC1C (stereo unspecified),6,4,-11,-1,-12,-6,i,0,
CNC(=O)C(=O)Nc1ccc2c(c1)N(S(=O)(=O)c1cccs1)CCC2,nt,-6,6,2,-1,nt,i,-14,
COC(=O)[C@H](CCSC)NC(=O)N1CCN(Cc2ccccc2)CC1,-3,-17,-16,2,3,13,i,-122,
COc1ccc(CCNC(=O)c2ccc3c(c2)N(Cc2ccc(F)cc2)CCS3)c(OC)c1,-14,6,-7,-8,-7,-17,i,18,
Cc1cc2cc(CN(Cc3ccco3)C(=O)C3CCCCC3)c(=O)[nH]c2cc1C,2,4,9,-1,-2,10,i,nt,
COCCn1c(SCC(=O)/C=C2\N(C)c3ccccc3C2(C)C)nnc1-c1ccncc1,-1,7,nt,25,-5,6,i,6,
CCc1nnc(NC(=O)CSc2nnc(-c3ccco3)n2CCOC)s1,4,7,nt,3,6,-2,i,5,
COc1ccc(Oc2cccc(Cl)c2CNC(=O)CSCC(=O)O)cc1,3,-6,nt,1,5,8,i,6,
O=C(COC(=O)Cc1ccc(Cl)c(Cl)c1)NCCc1ccccc1,nt,nt,-10,3,9,nt,nt,22,
CCOC(=O)c1cccc(NC(=O)CCc2nnc3ccc(N4CCOCC4)nn23)c1,-12,-10,0,1,3,-14,i,-1,
Cc1csc(=O)n1CC(=O)OCc1nnc(-c2ccccc2)o1,nt,-3,-8,-1,1,nt,i,-6,
CCOc1ccc(S(=O)(=O)Nc2ccc(S(=O)(=O)N3CCCCC3)cc2)cc1,-13,-3,6,-1,8,-7,i,-47,
C=CCC1(CC=C)CCCN1C(=O)C1CCC(=O)N(CCc2ccccc2)C1 (stereo unspecified),9,1,0,-5,0,9,i,-57,
Cc1ccccc1NC(=O)Cc1c(O)c2ccccc2[nH]c1=O,2,-12,-17,0,1,8,i,nt,
O=C(NCC1COc2ccccc2O1)c1cccc(S(=O)(=O)N2CCN(c3ccccc3)CC2)c1 (stereo unspecified),nt,nt,-12,-4,-26,nt,nt,?,
COc1ccc(-n2cnnc2SCCC#N)cc1,-9,-10,-19,-3,-2,-12,i,-67,
CC1CCN(CCc2nc3cc(NC(=O)C(C)C)ccc3n2C)CC1,-2,0,-5,1,2,0,i,1,
CC(C)[C@H](NC(=O)[C@@H]1CSC2c3ccccc3C(=O)N21)C(=O)NCC1CCCO1 (stereo partly specified),-6,-8,-4,0,2,-9,i,-7,
COc1ccc(S(=O)(=O)Nc2ccc3c(c2)n(C)c(=O)n3C)cc1F,2,2,-7,9,-18,5,i,-1,
OC1NC(=S)N(c2ccccc2)C1O (stereo unspecified),-10,-5,-15,6,6,-1,i,-13,
Cc1ccc(-n2c(SCC(=O)NCC3CCCO3)nnc2-c2ccoc2C)cc1 (stereo unspecified),2,-20,-12,-2,0,-3,i,-48,
O=C(c1ccccc1Cl)N1CCNCC1,2,-1,nt,-3,5,21,i,nt,
Cc1ccc(F)cc1NC(=O)CSc1ncccn1,9,-8,-6,3,6,8,i,-5,
CCCn1cc(S(=O)(=O)c2ccc(OC)cc2)c(=O)c2cc(OCC)ccc21,0,-23,5,-29,2,8,i,13,
CCN(CC)C(=O)COc1cc(C)cc2oc(=O)cc(-c3ccccc3)c12,8,-7,14,1,-5,-2,i,nt,
O=C(CN(Cc1ccccc1)S(=O)(=O)c1ccc(S(=O)(=O)N2CCOCC2)cc1)Nc1ccccc1,4,nt,-18,0,3,2,i,nt,
Cc1cc(C)c(C(=O)NNC(=O)c2cccnc2)c(C)c1,-1,2,-39,2,4,-7,i,-4,
O=C(NCCc1ccccc1)NC1CCCCC1,-4,2,-40,-3,1,7,i,-99,
Cc1cc(C)cc(NC(=O)CSc2nc(N)c(NC(=O)c3cccs3)c(=O)[nH]2)c1,-8,-9,-18,3,5,5,i,-7,
COc1cccc(NC(=O)COC(=O)/C=C/c2c(C)nn(-c3ccccc3)c2C)c1,nt,nt,0,0,3,nt,nt,10,
Nc1nonc1-c1nc2ccccc2n1CC(=O)N/N=C/c1ccc(-c2ccccc2C(=O)O)o1,48,5,nt,-1,5,0,i,16,
CC(C)=CCn1c2ccc(NC(=O)Nc3ccc(N(C)C)cc3)cc2c(=O)n1C,nt,nt,-13,3,3,nt,nt,-1,
Cc1ccc(-c2nc(SCC(=O)NCC3CCCO3)c(-c3ccc(Cl)cc3)[nH]2)cc1 (stereo unspecified),-5,1,3,1,-1,2,i,3,
COc1ccc(C(=O)CSc2nnc(C3CCCCC3)n2N)c(OC)c1,-4,nt,-17,-7,-12,-5,i,nt,
Cn1c(=O)c2c(nc(SCC(=O)NCc3ccc4c(c3)OCO4)n2Cc2ccccc2)n(C)c1=O,-6,2,-7,5,6,-2,i,nt,
COc1ccccc1S(=O)(=O)Nc1ccc2cn[nH]c2c1,-3,-4,-8,7,13,-8,i,21,
O=C(CN1CCN(S(=O)(=O)c2ccc(F)cc2)CC1)Nc1ccc(Cl)c(C(F)(F)F)c1,7,12,-11,-4,-22,-3,i,nt,
COc1ccc(CNC(=O)[C@H](C)NC(=O)C2CCN(S(=O)(=O)c3ccccc3)CC2)cc1,2,9,-4,-2,1,-5,i,-2,
O=C(N/N=C/c1c(Nc2cccc(C(F)(F)F)c2)nc2ccccn2c1=O)c1ccccc1[N+](=O)[O-],-1,-2,-13,4,2,-10,i,nt,
CN1CCN(c2ccc(NC(=S)NC(=O)c3cccc4ccccc34)cc2)CC1,-3,-14,-23,-2,0,-19,i,-16,
CCOC(=O)c1c(C)[nH]c(C)c1C(=O)COC(=O)c1nc2nccc(C)n2n1,3,-6,-1,0,4,12,i,10,
COCC(=O)Nc1ccc(S(=O)(=O)NCCc2ccccc2)cc1,-1,-14,-25,9,0,0,i,25,
O=C(CCn1cccc1)Nc1nccs1,0,-13,nt,-7,-1,2,i,nt,
COC(=O)CSc1cccc2c1C(=O)CC2c1ccccc1 (stereo unspecified),-7,-3,-6,3,0,-3,i,-4,
Cc1cc(C)n2nc(SCCCC(=O)c3ccc(F)cc3)nc2n1,-5,4,3,2,3,-3,i,-24,
CNC(=O)c1c[nH]n2c(=O)c(Cc3ccccc3F)c(C)nc12,-5,13,-12,5,7,7,i,-6,
Cc1ccc(S(=O)(=O)N(C)CC(=O)Nc2cc(C)ccn2)cc1,nt,-18,-20,2,1,nt,i,-45,
# Additional records:
SMILES,eIF4H FP inh,CSC inhib,Yeast UUG start,MT1-MMP act inh,MT1-MMP act inh RFP,PABP polyA inh,Rce1 inhib,HIV Env fusion,others
O=C(NC(=S)Nc1ccccn1)c1ccc(-c2ccccc2)cc1,-7,57,-34,-1,-6,-3,i,-300,
Cc1c(NC(=O)c2cccc(NC(=O)C(C)Oc3ccccc3)c2)c(=O)n(-c2ccccc2)n1C (stereo unspecified),nt,nt,-7,-1,-7,nt,nt,9,
Cc1ccccc1CSc1nnnn1-c1ccc(C(N)=O)cc1,3,7,-15,0,-3,9,i,5,
CCOc1ccc(C(CC(=O)O)n2cnnn2)cc1OC (stereo unspecified),-12,5,-4,-7,-1,-12,i,7,
COc1cc(-c2ccc3cc(OC)c(OC)c(OC)c3c2)cc(OC)c1OC,nt,nt,-6,-10,-11,nt,nt,2,
CCOC(=O)c1sc2cc([N+](=O)[O-])cc(SCC(=O)OC)c2c1N,15,9,-17,-13,-2,12,i,-45,
COc1ccccc1C1(CCN=Cc2ccc(N(C)C)cc2)CCOC(C)(C)C1 (stereo unspecified),-7,-1,15,-4,1,2,i,7,
O=C(COC(=O)Cn1[nH]c(=O)c2ccccc2c1=O)Nc1ncc(Cl)cc1Cl,nt,nt,-9,-4,6,nt,nt,-16,
O=C(NCCCn1ccnc1)C(=O)NCC(c1cccnc1)N1CCN(c2ccccc2)CC1 (stereo unspecified),0,nt,-18,2,-1,15,i,-26,
O=C(NCCCN1CCOCC1)C(=O)NCc1ccccc1Cl,-8,3,-19,3,3,-10,i,3,
Cc1cc(N2C(=O)C(O)=C(C(=O)c3cc4ccccc4o3)C2c2cccc(Br)c2)no1 (stereo unspecified),3,-1,-21,4,3,4,i,-8,
O=C1NC(=O)N(Cc2ccccc2)C1=O,-4,10,-3,2,4,2,i,-3,
COc1ccc(NC(=S)NNC(=S)Nc2cccc(C(F)(F)F)c2)cc1,-3,68,-14,4,-3,2,i,-1,
COCCOC(=O)c1c(C)n(C)c2ccc(OC(=O)c3ccco3)cc12,-2,5,-12,2,-5,2,i,-37,
CCOc1ccc(CN2CCN(Cc3ccsc3)C(CCO)C2)cc1CO (stereo unspecified),1,-13,nt,-3,2,-3,nt,-9,
COc1cc(/C=C2\SC(=O)N(CC(=O)Nc3ccc(C)cc3)C2=O)cc(Cl)c1OCC(=O)O,89*,-6,-16,-4,0,21,i,-9,eIF4H FP inh retest=85*;PABP polyA inh retest=22
